Assay outcomes deposited in PubChem by several laboratories.
Yeast UUG start – modulators of start codon recognition fidelity in yeast | activity score, % at 18.7 µM | S. cerevisiae UUG-firefly luciferase reporter, luminescence/redox ratio | 350,000 tested, 0.13% active | AID 602363;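 active = replicate mean at a twofold rise or more, about +100% in these data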;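 note: firefly luciferase made from a UUG start codon reports start codon fidelity; reporter light over untreated wells divided by growth signal over untreated wells; some hits fall short of that in this replicate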
eIF4H FP inh – inhibitors of RNA binding by human eIF4H | AID 2012 | inhibition, % at 35 µM | eIF4H fluorescence polarization binding assay | 290,000 tested, 0.94% active | Q15056;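 active = 50% or more with normal probe brightness, or confirmed in later tests; inconclusive = above 50% with abnormal brightness, or retests that disagree; inactive = below 50% or failed in later tests; about a fifth of its hits are not listed in these tables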;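 note: calls also rest on retests at 20 µM and on dose response follow-up; 0% = protein and probe with vehicle and 100% = probe without protein; strong numbers were not always called active; many hits fall short of the cut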
MT1-MMP act inh – blocks activation of human MT1-MMP | P50281 | HT1080 RFP-PRO-GFP cells, GFP/RFP ratio fluorescence, overnight; percent of plate control window, DMSO zero | GFP/RFP ratio change, % at 20 µM | 360,000 tested, 0.061% active | AID 651647;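 active = GFP/RFP ratio change of at least 30% with cell ATP level not reduced by more than half and red fluorescence within 50% of control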; note: strong numbers were not always called active
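Read-out: GFP/RFP fluorescence ratio; Test system: RFP-PRO-GFP reporter HT1080 cells; Compound dosing: single-point 20 µM compound, 1% DMSO; Times: overnight compound exposure at 37 °C.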
CSC inhib – cancer stem cell inhibition; cancer stem cell-like cells viability, luminescence; inhibition, % at 7.5 µM; 300,000 tested, 1.1% active;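 active = mean at 75% or more and at least half the replicates too; inconclusive = mean and replicates disagree; tested in HMLE shEcad cells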;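 note: 0% = median of negative and 100% = median of positive control wells; the first replicate is given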
HIV Env fusion – HIV envelope-mediated fusion inhibition; HeLa-JRFL Env/CEM21 cell fusion, luciferase; inhibition, % at 12.3 µM; 360,000 tested, 1.1% active; AID 651610;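 active = mean replicate inhibition score of at least 50 and every replicate individually at or above 50; inconclusive = only one of the two criteria met; inactive = mean below 50 and not all replicates reaching 50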;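 note: 0% = plate neutral controls and 100% = maraviroc near 300 nM; one replicate is shown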
PABP polyA inh – PABP-poly(A) binding inhibition | PABP-poly(A) RNA binding, fluorescence polarization | inhibition, % at 35 µM | 290,000 tested, 1% active;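 active = 50% or more with normal probe brightness, or confirmed in later tests; inconclusive = above 50% with abnormal brightness, or retests that disagree; inactive = below 50% or failed in later tests; about a fifth of its hits are not listed in these tables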;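 note: calls also rest on retests at 20 µM and on dose response follow-up; controls were probe without protein and protein plus probe with vehicle; some compounds called inactive have numbers as strong as hits; many hits fall short of the cut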
Target sequence (P11940 whole entry, looked up): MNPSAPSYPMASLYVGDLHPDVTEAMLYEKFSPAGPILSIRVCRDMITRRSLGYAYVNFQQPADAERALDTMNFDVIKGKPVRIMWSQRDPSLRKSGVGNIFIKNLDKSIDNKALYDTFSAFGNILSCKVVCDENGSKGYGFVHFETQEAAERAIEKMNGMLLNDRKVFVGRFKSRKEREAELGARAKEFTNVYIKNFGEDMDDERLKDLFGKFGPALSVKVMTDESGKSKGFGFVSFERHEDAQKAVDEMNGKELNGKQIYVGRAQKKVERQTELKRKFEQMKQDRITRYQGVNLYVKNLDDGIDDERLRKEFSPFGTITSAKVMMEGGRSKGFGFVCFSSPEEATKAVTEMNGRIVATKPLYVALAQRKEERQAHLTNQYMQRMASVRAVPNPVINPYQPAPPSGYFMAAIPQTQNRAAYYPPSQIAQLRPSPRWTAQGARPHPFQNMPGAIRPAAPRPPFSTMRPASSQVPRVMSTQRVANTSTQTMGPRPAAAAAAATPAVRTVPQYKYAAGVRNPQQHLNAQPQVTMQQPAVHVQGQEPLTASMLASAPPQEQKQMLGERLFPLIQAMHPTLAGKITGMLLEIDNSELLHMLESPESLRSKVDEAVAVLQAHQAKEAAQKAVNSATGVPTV
Rce1 inhib – inhibitors of yeast Ras-converting enzyme | Q03530 | yeast membranes, quenched prenylated peptide cleavage fluorescence | calls only | 290,000 tested, 0.27% active | AID 2563;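 active = fall in fluorescence gain of 50% or more versus controls, with final raw signal at or below 3038400; inconclusive = same 50% fall but final raw signal above 3038400; inactive = fall in fluorescence gain under 50%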;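 note: plate controls were neutral control wells for no effect and wells lacking membranes for full effect; tested at 10 µM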
Target sequence (Q03530 whole entry, looked up): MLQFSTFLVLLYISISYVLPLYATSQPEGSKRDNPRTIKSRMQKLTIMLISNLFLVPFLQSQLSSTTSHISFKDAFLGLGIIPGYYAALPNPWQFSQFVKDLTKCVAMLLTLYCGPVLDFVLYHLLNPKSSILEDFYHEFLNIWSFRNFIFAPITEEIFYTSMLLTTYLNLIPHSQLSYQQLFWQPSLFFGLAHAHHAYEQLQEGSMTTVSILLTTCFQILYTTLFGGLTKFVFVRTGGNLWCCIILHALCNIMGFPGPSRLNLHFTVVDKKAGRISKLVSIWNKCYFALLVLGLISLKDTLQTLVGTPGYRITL
eIF4H FP inh retest – second read-out of eIF4H FP inh, no call of its own (marks repeat the call); inhibition, %; compound at 20 µM; confirmation average;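 mean of two retest wells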
PABP polyA inh retest – also measured in PABP polyA inh; calls as there; inhibition, %; compound at 20 µM; confirmation repeats;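 mean of two retest wells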
MT1-MMP act inh RFP – second read-out of MT1-MMP act inh, no call of its own (marks repeat the call); RFP signal change, %; measured here: RFP expression control read;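 0 = vehicle wells; hits needed this value within 50% of zero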
* marks the source's active call; other numbers are inactive results; & = joins results of further samples; [ ] = dose if it differs, or a comment.

`Oc1ccc2[nH]cnc2c1CN1CCCCC1` gave Yeast UUG start -22, eIF4H FP inh 1, MT1-MMP act inh 5, PABP polyA inh -5, Rce1 inhib inactive and MT1-MMP act inh RFP 7.
`Cc1cc(NS(=O)(=O)c2ccc(NC(=O)c3cnc4scc(C)n4c3=O)cc2)nc(C)n1` gave Yeast UUG start 5, eIF4H FP inh -1, MT1-MMP act inh 0, CSC inhib -6, PABP polyA inh 2, Rce1 inhib inactive and MT1-MMP act inh RFP 2.
Cn1c(=O)c2cc(NC(=O)Nc3cccnc3)ccc2n1-c1ccc(C(C)(C)C)cc1 was read as Yeast UUG start -22, MT1-MMP act inh -3, HIV Env fusion -14 and MT1-MMP act inh RFP -9.
For COc1ccccc1S(=O)(=O)c1c(C)cc(C)[nH]c1=O the results were Yeast UUG start -10, eIF4H FP inh -14, MT1-MMP act inh -3, CSC inhib -10, HIV Env fusion -7, PABP polyA inh 6, Rce1 inhib inactive and MT1-MMP act inh RFP -1.
NC(=S)Nc1ccc2c(c1)OCO2 was read as eIF4H FP inh -3, MT1-MMP act inh -5, HIV Env fusion 7, PABP polyA inh -1, Rce1 inhib inactive and MT1-MMP act inh RFP 0.
`COc1ccc(C(=O)N(C)c2c(C)n(C)n(-c3ccccc3)c2=O)cc1OC` gave eIF4H FP inh -10, MT1-MMP act inh 0, CSC inhib -11, HIV Env fusion 4, PABP polyA inh 83, Rce1 inhib inactive, eIF4H FP inh retest -13, PABP polyA inh retest -1 and MT1-MMP act inh RFP 4.
`Cc1ccn2cc(-c3nonc3C)cc2c1` gave eIF4H FP inh inconclusive, MT1-MMP act inh -10, CSC inhib 5, PABP polyA inh inconclusive, Rce1 inhib inactive and MT1-MMP act inh RFP 8.
COc1ccc2cc(C(c3nnnn3Cc3ccccc3)N3CCCCCC3)c(=O)[nH]c2c1 (configuration not stated) was read as Yeast UUG start -4, eIF4H FP inh -9, MT1-MMP act inh -5, CSC inhib -3, HIV Env fusion -20, PABP polyA inh 29, Rce1 inhib inactive and MT1-MMP act inh RFP 2.
For O=C(CSc1nn(-c2ccccc2)c(=S)s1)NC1CCS(=O)(=O)C1 (configuration not stated) the results were eIF4H FP inh -6, MT1-MMP act inh 0, CSC inhib -12, HIV Env fusion -4, PABP polyA inh 2, Rce1 inhib inactive and MT1-MMP act inh RFP 4.
`CN1CCN(/N=C/c2c3ccccc3c(Cl)c3ccccc23)CC1` gave eIF4H FP inh -2, MT1-MMP act inh -21, CSC inhib 66, HIV Env fusion -4, PABP polyA inh -6, Rce1 inhib inactive and MT1-MMP act inh RFP 0.
Nc1nccnc1C(=O)OCC(=O)NCCc1ccc(Cl)cc1 was read as Yeast UUG start 0, MT1-MMP act inh -16, HIV Env fusion 8 and MT1-MMP act inh RFP -2.
O=C(NCc1nnc2c(C(F)(F)F)cc(Cl)cn12)c1ccc2c(c1)OCO2 was read as Yeast UUG start -12, eIF4H FP inh -11, MT1-MMP act inh 4, CSC inhib -4, HIV Env fusion -5, PABP polyA inh -9, Rce1 inhib inactive and MT1-MMP act inh RFP 3.
`CCN(C(=O)COC(=O)c1c(-c2ccccc2)noc1C)C1CCS(=O)(=O)C1` (configuration not stated) gave Yeast UUG start -11, eIF4H FP inh -2, MT1-MMP act inh 3, CSC inhib -1, PABP polyA inh -15, Rce1 inhib inactive and MT1-MMP act inh RFP 2.
`O=C(Nc1ccccc1)OCCOc1ccccc1Br` gave Yeast UUG start -1, eIF4H FP inh 2, MT1-MMP act inh 3, CSC inhib -5, HIV Env fusion -24, PABP polyA inh 2, Rce1 inhib inactive and MT1-MMP act inh RFP -5.
Screening CC(Sc1nc2ccccc2s1)C(=O)Nc1nnc(C(C)C)s1 (configuration not stated) returned Yeast UUG start 6, eIF4H FP inh -5, MT1-MMP act inh 0, CSC inhib -2, PABP polyA inh 17, Rce1 inhib inactive and MT1-MMP act inh RFP 2.
`CC(C)(C)OC(=O)C[C@H]1C/C=C\C[C@@H](CC(=O)N(CCO)Cc2ccccc2)C(=O)N[C@@H](Cc2ccccc2)COC1=O` gave Yeast UUG start 1, MT1-MMP act inh 3, HIV Env fusion 5 and MT1-MMP act inh RFP 4.
Screening O=C1C(=Cc2cn(-c3ccccc3)nc2-c2ccc(OCc3ccc(Cl)cc3)cc2)SC(=S)N1CCS(=O)(=O)O returned Yeast UUG start -16, MT1-MMP act inh -1, HIV Env fusion 30 and MT1-MMP act inh RFP 7.
For CCC(Cc1ccccc1)NC(=O)C1CCN(c2nn3c(=O)cc(C)nc3s2)CC1 (configuration not stated) the results were Yeast UUG start 0, eIF4H FP inh -6, MT1-MMP act inh 1, CSC inhib -7, HIV Env fusion -2, PABP polyA inh 1, Rce1 inhib inactive and MT1-MMP act inh RFP 6.
For C#Cc1ccc2c(c1)COc1c3ccccc3nn1-2 the results were Yeast UUG start -29, MT1-MMP act inh 2, CSC inhib 11, HIV Env fusion -144, Rce1 inhib inactive and MT1-MMP act inh RFP 2.
CC12CC(NC(=O)N1c1cccc(C(=O)N3CCCCC3)c1)c1ccccc1O2 (configuration not stated) was read as Yeast UUG start -1, eIF4H FP inh -3, MT1-MMP act inh 0, CSC inhib -10, HIV Env fusion -6, PABP polyA inh 3, Rce1 inhib inactive and MT1-MMP act inh RFP 4.
Screening O=C(O)c1cc([N+](=O)[O-])ccc1Nc1ccccc1 returned Yeast UUG start -3, eIF4H FP inh 6, MT1-MMP act inh -2, CSC inhib 18, PABP polyA inh 9, Rce1 inhib inactive and MT1-MMP act inh RFP 0.
Screening Cc1nn(CC(=O)NCCCN2CCCCC2C)c(=O)c2cccn12 (configuration not stated) returned Yeast UUG start -9, eIF4H FP inh 3, MT1-MMP act inh 2, CSC inhib -2, HIV Env fusion 6, PABP polyA inh 3, Rce1 inhib inactive and MT1-MMP act inh RFP -1.
Screening COc1ccc(C(=O)CC(=O)c2ccccc2O)cc1 returned Yeast UUG start -7, eIF4H FP inh -4, MT1-MMP act inh -1, CSC inhib 7, HIV Env fusion -85, PABP polyA inh -9, Rce1 inhib inactive and MT1-MMP act inh RFP -4.
`COCCC(=O)N1CCC(Oc2ccc(C(=O)NCCSC)cc2)CC1` gave Yeast UUG start -10, eIF4H FP inh 1, MT1-MMP act inh -1, CSC inhib -6, HIV Env fusion -9, PABP polyA inh 7, Rce1 inhib inactive and MT1-MMP act inh RFP -2.
Screening Cc1ccc2cc(C(c3nnnn3C3CCCC3)N3CCN(c4ccc(F)cc4)CC3)c(=O)[nH]c2c1 (configuration not stated) returned Yeast UUG start -9, eIF4H FP inh -1, MT1-MMP act inh -1, CSC inhib 0, HIV Env fusion -57, PABP polyA inh 19, Rce1 inhib inactive and MT1-MMP act inh RFP 4.
`CC(=O)N1CCN(Cc2nc3scc(-c4ccccc4)c3c(=O)[nH]2)CC1` gave eIF4H FP inh -6, MT1-MMP act inh 2, CSC inhib 2, HIV Env fusion -12, PABP polyA inh 5, Rce1 inhib inactive and MT1-MMP act inh RFP 4.
For COc1ccc(N(CC(=O)NC(C)(C)C)C(=O)CCC(=O)Nc2nccs2)c(OC)c1 the results were Yeast UUG start 0, eIF4H FP inh 9, MT1-MMP act inh -2, CSC inhib 10, HIV Env fusion -2, PABP polyA inh 6, Rce1 inhib inactive and MT1-MMP act inh RFP 2.
For COc1ccc(N(C(=O)c2ccncc2)S(=O)(=O)c2ccc(Cl)cc2)cc1 the results were Yeast UUG start -20, eIF4H FP inh -6, MT1-MMP act inh 1, PABP polyA inh -6, Rce1 inhib inactive and MT1-MMP act inh RFP 2.
`Cc1cc(C)cc(NC(=O)COc2coc(CN3CCc4ccccc43)cc2=O)c1` gave Yeast UUG start -19, MT1-MMP act inh 2, CSC inhib -1, Rce1 inhib inactive and MT1-MMP act inh RFP -3.
Screening CCOc1ccccc1/C=N/NC(=O)CNC(=O)c1cccs1 returned eIF4H FP inh -11, MT1-MMP act inh -3, CSC inhib 0, HIV Env fusion -14, PABP polyA inh 1, Rce1 inhib inactive and MT1-MMP act inh RFP 2.
CN(C(=O)COC(=O)C(C)(C)Oc1ccc(Cl)cc1)c1c(N)n(Cc2ccccc2)c(=O)[nH]c1=O was read as Yeast UUG start -17, MT1-MMP act inh -2, CSC inhib 2, HIV Env fusion 5, Rce1 inhib inactive and MT1-MMP act inh RFP -1.
CCO[C@H]1OC(C(=O)Nc2ccccc2)=C[C@@H](c2ccc(C(F)(F)F)cc2)[C@@H]1CCCO was read as Yeast UUG start -2, eIF4H FP inh -1, MT1-MMP act inh -5, CSC inhib 13, HIV Env fusion -1, PABP polyA inh -3, Rce1 inhib inactive and MT1-MMP act inh RFP -8.
`Cc1cc(Br)ccc1OCC(=O)NNC(=O)C(=O)Nc1ccccc1` gave eIF4H FP inh 0, MT1-MMP act inh 2, CSC inhib 6, HIV Env fusion 9, PABP polyA inh 6, Rce1 inhib inactive and MT1-MMP act inh RFP 1.
Screening O=C1CCC([N+](=O)[O-])C(c2ccc3c(c2)OCO3)N1 (configuration not stated) returned eIF4H FP inh 4, MT1-MMP act inh 4, CSC inhib 11, HIV Env fusion -1, PABP polyA inh 5, Rce1 inhib inactive and MT1-MMP act inh RFP 6.
For Cc1cc(C(=O)NN=Cc2ccc(OC(=O)c3ccco3)cc2)c(C)o1 the results were MT1-MMP act inh 5, CSC inhib 1, HIV Env fusion 7 and MT1-MMP act inh RFP 5.
Cc1ccccc1OCC(=O)N/N=C/c1ccc([N+](=O)[O-])o1 was read as eIF4H FP inh 22, CSC inhib -9, HIV Env fusion 0, PABP polyA inh 120, Rce1 inhib inactive, eIF4H FP inh retest 29 and PABP polyA inh retest 36.
Screening COc1ccccc1-n1c(SCC(=O)NC(C)(C)C)nnc1-c1ccco1 returned Yeast UUG start 8, eIF4H FP inh 4, MT1-MMP act inh 11, CSC inhib -7, HIV Env fusion -9, PABP polyA inh 17, Rce1 inhib inactive and MT1-MMP act inh RFP 3.
`O=C(O)CC1C(=O)NCCN1CCCc1ccccc1` (configuration not stated) gave Yeast UUG start -13, eIF4H FP inh -8, MT1-MMP act inh 4, CSC inhib -8, HIV Env fusion -12, PABP polyA inh -3, Rce1 inhib inactive and MT1-MMP act inh RFP 4.
For CCCn1c(=O)c2ccccc2n2c(=S)[nH]nc12 the results were Yeast UUG start -6, eIF4H FP inh -7, MT1-MMP act inh 1, CSC inhib -7, HIV Env fusion 4, PABP polyA inh 10, Rce1 inhib inactive and MT1-MMP act inh RFP 0.
Screening NC(=O)C1CCN(c2oc(/C=C/c3ccccc3)nc2S(=O)(=O)c2ccccc2)CC1 returned Yeast UUG start 1, eIF4H FP inh -13, MT1-MMP act inh -7, CSC inhib -14, HIV Env fusion 0, PABP polyA inh -7, Rce1 inhib inactive and MT1-MMP act inh RFP -2.
Screening CC(CNC(=O)c1ccc(NC2=NC3CS(=O)(=O)CC3S2)cc1)c1ccccc1 (configuration not stated) returned Yeast UUG start -23, eIF4H FP inh 0, MT1-MMP act inh 1, HIV Env fusion 2, PABP polyA inh -2, Rce1 inhib inactive and MT1-MMP act inh RFP 3.
`Cc1cc(-n2c(C)cc(C(=O)CSc3[nH]c(=O)cc(C(F)(F)F)c3C#N)c2C)no1` gave Yeast UUG start -9, MT1-MMP act inh 3, CSC inhib 21 and MT1-MMP act inh RFP -1.
C[C@@H]1CN([C@@H](C)CO)C(=O)c2cccc(NS(C)(=O)=O)c2O[C@H]1CN(C)CC1CCCCC1 was read as Yeast UUG start -8&-13, MT1-MMP act inh 3, HIV Env fusion -4[16.7 µM] and MT1-MMP act inh RFP 0.

An excerpt, so the mix of outcomes need not match the whole.
